Assay outcomes: PubChem BioAssay, National Center for Advancing Translational Sciences (NCATS)
VDR inh: blocks the human vitamin D receptor. actives 0.93% (n = 400,000). VDR-SRC2-3 peptide fluorescence polarization, 2 h. P11473. Potency, µM, for inactives: max response, negative = inhibition, usual class: inhibitors; active means well fitted inhibition curve with a large enough effect; inconclusive means small, poorly fitted or top-dose-only effect, or another doubt; inactive means no such curve, though single readings can be large or run the other way; further: series mostly up to about 120 µM
Target sequence (P11473 whole entry, looked up): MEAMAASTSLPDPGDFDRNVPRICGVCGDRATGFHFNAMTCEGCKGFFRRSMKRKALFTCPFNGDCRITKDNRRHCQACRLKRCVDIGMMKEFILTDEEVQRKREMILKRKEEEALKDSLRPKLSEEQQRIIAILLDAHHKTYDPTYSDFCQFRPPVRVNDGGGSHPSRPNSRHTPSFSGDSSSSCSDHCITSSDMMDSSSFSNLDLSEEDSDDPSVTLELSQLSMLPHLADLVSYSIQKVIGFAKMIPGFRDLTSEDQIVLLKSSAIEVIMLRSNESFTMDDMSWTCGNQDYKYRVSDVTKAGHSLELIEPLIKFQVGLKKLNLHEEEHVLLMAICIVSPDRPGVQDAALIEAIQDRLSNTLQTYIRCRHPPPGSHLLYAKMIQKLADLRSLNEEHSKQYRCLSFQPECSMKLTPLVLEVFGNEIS
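VDR–SRC2-3 interaction, FP format. Cmpds 23 nl via pintool, brief spin, 2 h ambient incubation.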
* hit, by the source's call; u = inconclusive; & = joins results of further samples. On the % scale 0 is the no-effect control and ±100 the full control effect; potency means the concentration at half of the fitted maximal effect. This is a subset. The share of hits here may be higher or lower than overall.

SMILES	VDR inh
COc1ccc(Nc2cccc(Cl)c2)c(C(=O)O)c1	-8%
Cc1c(NC(=O)C(C)Sc2ncnc3ccccc23)c(=O)n(-c2ccccc2)n1C (stereo not given)	-2%
O=C(NCCCn1ccnc1)/C(=C\c1ccc(Br)cc1)NC(=O)c1ccccc1F	-17%
Fc1ccc(-n2c(-c3cc(C4CC4)[nH]n3)n[nH]c2=S)cc1Cl	-2%
O=C(c1noc2c1CCCC2)N1CCN(c2ccc(F)cc2)CC1	-3%
CCOC(=O)c1c(NC(=O)c2nc(SCC)ncc2Cl)sc(C(C)=O)c1C	-12%
O=C(Nn1c(C2CCC2)nc2ccccc2c1=O)C1CCC1	-1%
Cc1cc(C)nc(NS(=O)(=O)c2ccc(NC(=O)C3(c4ccccc4)CCCC3)cc2)n1	-3%
CCN1CCN(C(=O)C2CCC(=O)N(CCCN3CCCC3=O)C2)CC1 (stereo not given)	-9%
COc1ccc(S(=O)(=O)N2CC(=O)Nc3ccccc32)cc1Cl	7%
Cc1c(N=C(N)/N=C(\N)Nc2ccc(Br)cc2)c(=O)n(-c2ccccc2)n1C	16%
C[C@H](C[C@H](O)[C@H]1OC1(C)C)C1=C2C[C@H](O)C3[C@@]4(C)CCC(=O)C(C)(C)C4CC[C@]3(C)[C@@]2(C)CC1 (stereo not given in full)	-12%
C=CCNC(=O)c1ccc(OC)cc1OC	-9%
Cc1cc(C)c(S(=O)(=O)n2cc(C(C)C(N)C(=O)O)c3ccccc32)c(C)c1 (stereo not given)	-17%
COc1ccccc1N1CCN(CCN2C(=O)CC(=C3c4ccccc4-c4ccccc43)C2=O)CC1	-1%
Cc1cc(NC(=O)CSc2nc3cc(Cl)ccc3s2)no1	10%
C/C(=N\Nc1cc(C)nc(NCc2ccccc2)n1)c1cccc([N+](=O)[O-])c1	-17%
COc1cccc(NC(=O)Cn2c(=O)n(Cc3ccccc3)c(=O)c3c2c2cc(C)ccc2n3C)c1	5%
C/C(=N\OC(=O)c1ccc(C)cc1)c1c(C)nc2cc(C)ccn12	0%
O=C(O)c1ccc(-c2sc(Nc3ccccc3)n[n+]2-c2ccccc2)cc1	5%
CN(C)C(CNC(=O)c1cc(S(=O)(=O)N(C)c2ccccc2)ccc1Cl)c1ccccc1 (stereo not given)	11%
CC1CCCCC12NC(=O)N(CC(=O)OCc1ccccc1Cl)C2=O (stereo not given)	-6%
Cc1ccccc1NC(=O)COC(=O)Cc1ccsc1	-2%
Cc1cc(C)c(C)c(S(=O)(=O)N2CCC(C(=O)N3CCCCCCC3)CC2)c1C	-8%
CCOc1ccc(C2NC(=O)c3ccccc3O2)cc1 (stereo not given)	-29%
(next part)
SMILES	VDR inh
C/C=C/C(=O)OCC(=O)Nc1c(Cl)cccc1Cl	8%
CN1CCN(C(=O)c2cc3cc(Cl)ccc3[nH]2)CC1	5%&3%
COc1ccc(CC2(CO)CCN(Cc3nc(C(C)C)cs3)CC2)cc1	7%
CC1CCCCN1C(=O)Nc1cccc(Cl)c1 (stereo not given)	-27%
Cc1ccccc1CS(=O)(=O)c1cn(CC(=O)N2CCC(C)CC2)c2ccccc12	-6%
CC(=O)c1ccc(NC(=O)C2CCN(S(=O)(=O)c3cccnc3)CC2)cc1	18%
O=C(CSc1nc(=O)n(CCCN2CCOCC2)c2c1CCC2)Nc1ccc(F)cc1F	-7%
O=C1CCC(C(=O)N2CCC(O)CC2)CN1CCc1ccc(Cl)cc1 (stereo not given)	-13%
CC(=O)c1cc(-c2ccc(F)cc2)n(CC(=O)NC2CCCCCC2)c1C	21%
CCOc1ccc(Nc2nc(-c3sc(N)nc3C)cs2)cc1	28%
Cc1cc(C)n(C(C)CC(=O)Nc2cccc(C#N)c2)n1 (stereo not given)	-4%
CC(C)(C)c1ccccc1NC(=O)Cn1cnc2cc([N+](=O)[O-])ccc2c1=O	-12%
CC(=O)NC1=NN(C(C)=O)C(C)(CS(=O)(=O)c2ccc(Cl)cc2)S1 (stereo not given)	10%
COc1ccc2sc(N(CCCN(C)C)C(=O)c3nc4ccccc4s3)nc2c1	22%
COc1ccc(C2=C(N)c3ccccc3C2=O)cc1	-10%
O=C(CCc1ccccc1)Nc1ccccc1C(=O)NCc1ccco1	1%
CCOc1ccc(N2CC(O)=C(c3ccccc3)C2=N)cc1	2%
COc1ccc(CCNC(=S)NCc2cccs2)cc1OC	-13%
C/C(=N/Nc1ccc([N+](=O)[O-])cc1)c1ccc(C)cc1C	-2%
CCc1nnc(NS(=O)(=O)c2ccc(NC(=S)NC(=O)c3cccnc3)cc2)s1	-7%
COc1ccc(N(CC(=O)Nc2cc(Cl)ccc2OC)S(=O)(=O)c2c(C)[nH]c(=O)[nH]c2=O)cc1	2%
Cc1cccc2sc(NC(=O)CN3C(=O)C4CC=CCC4C3=O)nc12 (stereo not given)	14%
O=c1cc2c(n[nH]1)CCCC2	3%
CC1=C(C(=O)OCc2ccc3c(c2)OCO3)C(c2cccc([N+](=O)[O-])c2)NC(=O)N1 (stereo not given)	19%
Cc1cc(F)ccc1S(=O)(=O)Nc1ccccc1C(=O)Nc1ccc2[nH]c(=O)[nH]c2c1	1%
Next structures follow.
SMILES	VDR inh
C/C(=N/NC(=O)CN1CCN(S(=O)(=O)c2ccc(C)cc2)CC1)c1ccco1	12%
Cc1ccc(S(=O)(=O)N2CCN(C(=O)Cc3ccc4c(c3)OCCO4)CC2)cc1C	8%
CCCOC(=O)CSc1nc(N)c(C#N)c(-c2ccco2)c1C#N	4%
COc1ccc(NC(=O)CSc2nnc(-c3ccco3)n2C)cc1	6%
CCCC(=O)Nn1cnc2c(c1=O)C1(CCCC1)Cc1ccccc1-2	0%
COC(=O)c1ccc(CNC(=O)N2CCN(S(=O)(=O)c3ccc(C)cc3)CC2)cc1	8%
Cc1ccc(S(=O)(=O)N2CCOCC2)cc1NC(=O)C1CC(=O)N(c2ccc3c(c2)OCCO3)C1 (stereo not given)	12%
OC1(c2ccccc2)Cc2cccc[n+]2C1c1ccccc1 (stereo not given)	6%
CCCc1ccc(OCCNC(=O)c2ccco2)cc1	-4%
Cc1ccc(S(=O)(=O)Nc2ccc(C(=O)NCc3ccncc3)cc2)cc1	4%
O=C(Nc1cccc(S(=O)(=O)c2cccc(NC(=O)c3ccco3)c2)c1)c1ccco1	-8%
COC(=O)C1CCN(CC(N)=O)CC1	0%
Cn1c(CNc2ccc(F)cc2)nc2ccccc21	-1%
CCc1ccc(-n2c(O)c(C=NCCN(CC)CC)c(=O)[nH]c2=O)cc1	-1%
COc1ccccc1/C=N/NC(=O)c1cc2c(ccc3ccccc32)o1	-15%
CCCOc1ccc(N2C(=O)CC(NCC#N)C2=O)cc1 (stereo not given)	-13%
CC(C)CCNC(=O)C1CCN(c2nnc(-n3cccc3)s2)CC1	-23%
O=C(CSCc1ccc(Br)cc1)N=Nc1c(O)[nH]c2ccccc12	-6%
CCCCOc1ccc(N(CC(=O)NCC2CCCO2)C(=O)CCC(=O)Nc2cc(C)ccn2)cc1 (stereo not given)	-14%
O=C(Nc1ccccc1Cl)c1ccc(Cl)cc1Cl	-14%
COc1ccc2c(c1)C1(Nc3ccccc3-c3nc4ccccc4n31)C(=O)N2C (stereo not given)	-12%
CCOc1ccc(Nc2nc3c(S(=O)(=O)c4cccc(Cl)c4)nnn3c3ccsc23)cc1	4%
CSc1nnc(-c2cnccn2)n1Cc1ccccc1	-5%
NC(=O)c1nsc(C(=O)N(c2ccccc2)C(C(=O)NC2CCCC2)c2ccncc2)c1N (stereo not given)	8%
COC(=O)[C@@H]1C[C@@]2(O)[C@H](O)[C@H](O)[C@H](O)C[C@H]2N1Cc1ccc(C(C)(C)C)cc1	-13%
The results go on.
SMILES	VDR inh
COc1cc(NC(=O)CSc2nc(=O)n(CCN3CCOCC3)c3c2CCC3)cc(OC)c1	-15%
CCn1nnc(NC(=O)c2ccc(-c3ccccc3[N+](=O)[O-])o2)n1	3%
O=C(CSc1cccc2cccc(Cl)c12)NCc1cccs1	-1%
O=C1NN(c2cccc(Br)c2)C(=O)/C1=C\c1ccccc1	u
COc1ccccc1-c1nc(C#N)c(N2CCCCCC2)o1	-3%
O=C(Nc1ccc(Cl)cc1)c1cnc(-c2ccccc2)nc1-c1ccccc1	-8%
Cc1cccc(NS(=O)(=O)c2cccc(C(=O)NCC(c3ccco3)N(C)C)c2)c1 (stereo not given)	7%
CCOc1cccc(C(=O)Nc2cccc(-c3nnc(-c4ccc(C)cc4)o3)c2)c1	-18%
O=C(Cc1nn[nH]n1)c1ccccc1O	-8%
Cc1cc(C(=O)NCc2ccco2)c2ccccc2n1	-16%
CCn1c(C)cc(/C=C2/SC(=O)N(C(C)C(=O)OC)C2=O)c1C (stereo not given)	0%
CC(C)CCNC(=O)CCc1nnc(COc2ccccc2)o1	-14%
COc1ccc(/C=C/C(=O)Nc2ccc(N3CCOCC3)cc2)cc1	16%
CCOc1ccc(Nc2nc3ccccc3c(=O)s2)cc1	4%
CC(C)NS(=O)(=O)c1ccc(NC(=O)C(C)OC(=O)CCC(=O)c2cccs2)cc1 (stereo not given)	7%
CN(Cc1nc(-c2ccccn2)no1)S(=O)(=O)c1ccccc1	5%
Cn1cccc1C(=O)N1CCC[C@@]2(CCN(c3ccccc3)C2)C1	u
CC(C)(C)S(=O)(=O)c1cnc(-c2cnccn2)nc1N	5%
c1ccc([C@H]2CNCCN2CCc2cccc3ccccc23)cc1	6%
Cn1ncc([N+](=O)[O-])c1C(=O)N1CCOCC1	-13%
O=C(CSc1nnc(Cn2c(=O)sc3ccccc32)n1CCc1ccccc1)N1CCCC1	3%
CC(C)(C)c1ccc(C(=O)N2CCC(C(=O)NC3CCCCCC3)CC2)cc1	-12%
O=C(C1CCN(S(=O)(=O)c2ccc(Br)cc2)CC1)N1CCOCC1	-7%
CCN(CC(=O)NC(C)C)C(=O)c1ccc(S(=O)(=O)N(C)c2ccccc2OC)cc1	u
COc1ccccc1NC(=O)c1sc2ncn(CC(=O)N3CCC(C)CC3)c(=O)c2c1C	7%
New compounds follow
SMILES	VDR inh
Cc1ccnc(N2CCCC(C(=O)Nc3cc(F)ccc3C)C2)n1 (stereo not given)	7%
O=C(CCC(=O)N1CCCC1)Nc1nnc(C2CCCCC2)s1	-3%
COc1ccc2oc(-c3cccc(NC(=O)c4sc5c([N+](=O)[O-])cccc5c4Cl)c3)nc2c1	0%
O=C(Cn1ncc2c3ccccc3n(Cc3cccc(Cl)c3)c2c1=O)NCCCc1ccccc1	7%
CCCCNC(=O)Nc1ccon1	7%
CSC1=NCCN1C(=O)Cc1cccc2ccccc12	13%
C=CC[C@]12CCc3sccc3C1N(c1ccc(C(=O)OCC)cc1)C2=O (stereo not given in full)	-24%
NNc1ccc(Cl)c(C(=O)O)c1	-28%
N#Cc1ccccc1Sc1ccccc1C(=O)OCC(=O)NC1CCCCC1	-18%
COc1ccc(N2CCN(S(=O)(=O)c3ccc4c(c3)OCCO4)CC2)cc1	10%
CC(=O)N1CCC(N(Cc2ccc(C)o2)C(=O)Nc2ccccc2F)CC1	5%
COc1ccc2[nH]c3c(c2c1)CCN1C(=O)C(CC(=O)NC/C=C(\C)CCC=C(C)C)C[C@H](C(=O)N2CCOCC2)[C@@]31CCC1CCCC1 (stereo not given in full)	4%
CCOC(=O)N1CCC(NC(=O)c2cc3c(=O)n(C)c4ccccc4c3n2C)CC1	-3%
O=C(CCC(=O)Nc1ccc(F)cc1)N/N=C/c1cccc(Br)c1	18%
CC(C)(C)c1ccc(N2C(=N)SCC2=O)cc1	11%
COc1ccc(S(=O)(=O)N(C(C)=O)c2ccc3oc(=O)sc3c2)cc1	79µM*
Cn1c(=O)[nH]c(=O)c2c1nc(N1CCCCC1)n2C/C=N/Nc1ccc(C(=O)O)cc1	-2%
COC(=O)CCN(C(=O)c1cccc(OC(C)=O)c1)c1ccccn1	-10%
CCC[N+]1(CC#CCC(c2ccccc2)c2ccccc2)CCCCC1	5%
Nc1ncnc2c1nc(Br)n2[C@@H]1O[C@H]2COP(=O)(O)O[C@@H]2[C@@H]1O	2%&-2%
COc1ccc(-c2noc(N3CCC(C(=O)NCCCN4CC(C)CC(C)C4)CC3)n2)cc1 (stereo not given)	-3%
Cc1c(C)c2c(cc(C)c3c(-c4ccc(Br)cc4)coc32)oc1=O	10%
C/C(=N/OC(=O)c1ccc(C)cc1)c1ccc(N2C(=O)C3CCCCC3C2=O)cc1 (stereo not given)	u
COC(=O)CCSC(=S)N1CCOCC1	12%
Cc1cc(C(=O)N/N=C2\CCCC(=O)C2)c(C)n1-c1ccccc1	0%
O=C(c1ccccc1)c1nn(-c2ccccc2)c2nnc(Cc3ccccc3)c(=O)n12	-4%
